# GPT2 inh = inhibitors of human GPT2 alanine aminotransferase | Q8TD30 | Recombinant GPT2, coupled pyruvate oxidase/HRP Amplex Red fluorescence | Potency, µM (titrated, usually from 57.7 µM), inactives show top-dose activity change, negative = inhibition, most hits filed as inhibitors | 100,000 tested, 0.25% active; also: nearly all actives have a fitted effect of over 60% in size; many of its hits are not listed in these tables
# Target sequence (Q8TD30 whole entry, looked up): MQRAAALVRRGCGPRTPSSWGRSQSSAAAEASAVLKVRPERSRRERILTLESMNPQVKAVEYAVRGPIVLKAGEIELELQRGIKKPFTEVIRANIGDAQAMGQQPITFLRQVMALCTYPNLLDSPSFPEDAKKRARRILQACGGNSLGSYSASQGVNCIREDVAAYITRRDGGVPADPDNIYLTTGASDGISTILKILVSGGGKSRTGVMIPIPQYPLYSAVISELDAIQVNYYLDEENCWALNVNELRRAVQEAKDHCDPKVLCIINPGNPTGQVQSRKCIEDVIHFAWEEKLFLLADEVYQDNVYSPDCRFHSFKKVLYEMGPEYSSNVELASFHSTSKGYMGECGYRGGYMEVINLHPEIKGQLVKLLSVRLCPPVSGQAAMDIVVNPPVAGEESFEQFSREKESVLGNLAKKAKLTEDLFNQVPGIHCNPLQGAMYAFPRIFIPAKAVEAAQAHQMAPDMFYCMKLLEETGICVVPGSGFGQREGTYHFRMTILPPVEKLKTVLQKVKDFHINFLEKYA
#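 Recombinant GPT2 (10ng/uL) with 250uM a-KG and 2mM L-alanine, 30 min at room temperature, in HEPES pH 7.5 buffer. Pyruvate detected by pyruvate oxidase/HRP/Amplex Red fluorescence after 30 min in the dark; AOA (50uM) as positive control.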
# HEK293 viab = cell viability loss counter-screen. HEK-293-SNCA-luc viability, GF-AFC fluorescence, 24 h. Potency, µM (series often up to 57.1 µM), for the others: at the highest dose activity change, negative = cytotoxicity, most hits filed as cytotoxic. 150,000 tested, 0.12% active. AID 1671193;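 also: 0% = DMSO-treated cells and -100% = medium-only wells without cells; nearly all actives have a fitted effect of over 30% in size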
#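 Cytotoxicity counterscreen: after 24 h compound treatment of genome-edited SNCA-luciferase HEK-293 cells, live-cell protease substrate GF-AFC read by fluorescence after 30 min; activity scaled between DMSO (0%) and medium-only (-100%), curves Hill-fitted.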
# 3T3 cytotox = cytotoxic compounds in NIH 3T3 cells. NIH 3T3 viability, CellTiter-Glo ATP luminescence, 48-72 h. 94,000 tested, 4.3% active. Potency, µM (titrated, usually from 96.7 µM), inactives show at the highest dose activity change, negative = cytotoxicity, most hits filed as inhibitors; also: nearly all actives have a fitted effect of over 55% in size
#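 NIH 3T3 cells at 400 cells/well received 23 nL of compound by pintool and were incubated 48 or 72 h at 37 °C. Viability was read as ATP-coupled CellTiter-Glo luminescence.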
# HEK cytotox = kills HEK 293 cells | HEK 293 viability, ATP luminescence (CellTiter-Glo), 48-72 h | AID 1345083 | 94,000 tested, 6.6% active | Potency, µM (doses to about 115 µM), for inactives: at the top dose activity change, negative = cytotoxicity, most hits filed as inhibitors; also: nearly all actives have a fitted effect of over 60% in size
#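 HEK 293 seeded at 250 cells/well receive compound via pintool. After 48 or 72 hr at 37 degree Celsius, 5% CO2 and 95% humidity, CellTiter-Glo is dispensed and luminescence read following 10 min at room temperature.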
# FLuc inh = inhibitors of firefly (Photinus pyralis) luciferase; P08659; purified P. pyralis luciferase, luminescence, biochemical; Potency, µM (highest dose often 115 µM), without a hit: at the highest dose activity change, negative = inhibition, actives largely listed as inhibitors; 76,000 tested, 2.5% active; AID 1347043; also: nearly all actives have a fitted effect of over 65% in size
# Target sequence (P08659 whole entry, looked up): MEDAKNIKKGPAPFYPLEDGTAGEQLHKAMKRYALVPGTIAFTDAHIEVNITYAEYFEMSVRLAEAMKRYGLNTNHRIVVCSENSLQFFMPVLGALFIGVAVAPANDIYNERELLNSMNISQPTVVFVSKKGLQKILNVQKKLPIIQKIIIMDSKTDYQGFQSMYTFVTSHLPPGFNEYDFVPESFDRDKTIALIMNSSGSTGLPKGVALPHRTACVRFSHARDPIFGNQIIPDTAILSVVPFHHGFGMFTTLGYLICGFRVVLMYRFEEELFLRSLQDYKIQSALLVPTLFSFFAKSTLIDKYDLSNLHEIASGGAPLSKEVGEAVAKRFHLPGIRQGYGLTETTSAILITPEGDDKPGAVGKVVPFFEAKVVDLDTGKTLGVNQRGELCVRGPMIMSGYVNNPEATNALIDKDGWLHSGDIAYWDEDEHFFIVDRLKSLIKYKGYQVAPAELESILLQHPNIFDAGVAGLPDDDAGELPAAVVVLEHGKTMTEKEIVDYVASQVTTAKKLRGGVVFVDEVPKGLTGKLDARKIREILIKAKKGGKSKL
#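 Purified 10nM P. pyralis luciferase with 10uM D-luciferin and 10uM ATP in 50mM Tris acetate pH 7.5, 10mM Mg acetate, 0.01% Tween-20, 0.05% BSA. qHTS titration; luminescence read by CCD imager.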
# SNCA expr inh = reduces expression of the alpha-synuclein gene | HEK-293 SNCA-luciferase knock-in, luminescence, 24 h | Potency, µM (highest dose often 57.2 µM), for inactives: at the top dose activity change, negative = inhibition, usual class: inhibitors | 140,000 tested, 0.17% active;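 also: plate controls were DMSO cells for no effect and cell-free wells for full effect; nearly all actives have a fitted effect of over 45% in size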
# * = called active by the depositor; i = inactive; ? = inconclusive; / = not tested or not shown; [ ] = another dose, or the depositor's remark. Calls follow the shape of the dose curve; as a rule, active = well fitted curve in the direction sought with a large enough effect; inconclusive = small, poorly fitted or top-dose-only effect, or another doubt; inactive = no such curve, though single readings can be large; an effect the other way counts as inactive or inconclusive. Unless noted, % is scaled to controls: 0 for no effect and ±100 for the full control effect; potency is read from the fitted curve at half-maximal effect.
# Order of values – GPT2 inh | HEK293 viab | 3T3 cytotox | HEK cytotox | FLuc inh | SNCA expr inh
CC(=O)N1c2ccc(S(=O)(=O)NCCC(=O)Nc3ccc(C)cc3Br)cc2CC1C (stereo unspecified)
    / | 4.5% | / | / | / | -4.9%
Cc1ccc(CNC(=O)C(C)n2c(=O)cc(C(F)(F)F)c3c(C)nn(C)c32)cc1 (stereo unspecified)
    / | 1.2% | / | / | / | ?
Clc1ccc(CCNc2nc3cc(Cl)c(Cl)cc3n3cnnc23)cc1
    / | -1.4% | / | / | / | 16.7%
O=C(c1ccc2ccccc2n1)N1CCC(n2c(=O)[nH]c3ccccc32)CC1
    i | ? | -7.4% | ? | / | 12.5%
O=C(C1=NOC2CN(C(=O)C3CC3)CC12)N1CCN(c2ncccn2)CC1 (stereo unspecified)
    i | 0.1% | -15.6% | -14.2% | / | 24.3%
Cc1ccccc1NC(=O)CSc1ccc(-c2cccs2)nn1
    / | 6.0% | / | / | / | 22.2%
COc1ccc(CN2CCC3(C2)C(=O)Nc2ccccc23)cc1 (stereo unspecified)
    i | 0.3% | -1.5% | ? | / | -6.3%
CCc1ccc(-n2c(SCc3cccc(F)c3)nc3[nH]ncc3c2=O)cc1
    / | -7.3% | / | / | / | 3.6%
Cn1cc(-c2cnc(Nc3cccnc3)c3c2CCO3)cn1
    i | 10.1%[87.6 µM] | ? | ? | ? | 74.4%[activator][87.6 µM]
CN(C)C(=O)c1nc(-c2ccc(S(C)(=O)=O)cc2)c2cnccn12
    4.0% | ? | -8.3% | i | / | 2.1%
O=C(NCC1CCCO1)c1cnc2c(c1)N(Cc1ccccc1)CCC2 (stereo unspecified)
    i | 6.1%[87.6 µM] | ? | ? | 11.9%[172 µM] | -7.6%[87.6 µM]
Cc1ccccc1C(=O)NC1(C(F)(F)F)C(=O)Nc2c1c(=O)[nH]c(=O)n2-c1ccc(F)cc1 (stereo unspecified)
    / | 5.2% | / | / | / | -15.5%
CC(C)Cn1cc(NC(=O)NCc2ccccc2)c2ccccc2c1=O
    / | -3.1% | / | / | / | 1.4%
C[S+](=O)([O-])c1ccc(-c2nc(C(=O)N3CCOCC3)n3ccncc23)cc1
    -3.2% | ? | i | 4.3% | / | -11.7%
CCNC(=O)CC1C(=O)N(c2ccc(C)cc2)C(=O)N1Cc1ccc(C)cc1 (stereo unspecified)
    / | 1.7% | / | / | / | -15.6%
COc1cc(Cl)c(NC(=O)CN(C)S(=O)(=O)c2ccc3c(c2)CCCC(=O)N3)c(OC)c1
    / | 8.4% | / | / | / | -3.7%
Cc1ccccc1C(=O)N1CCC(c2nc(-c3ccc(S(=O)(=O)N4CCCC4)cc3)no2)CC1
    / | -1.2% | / | / | / | 10.2%
CC(C)CNC(=O)C1=CC(c2ccc3c(c2)OCO3)=NS(=O)(=O)N1C
    / | -7.6% | / | / | / | -5.0%
Cc1ccc(S(=O)(=O)c2nc(-c3ccco3)oc2SCC(=O)Nc2ccc(F)cc2)cc1
    / | -1.7% | / | / | / | 7.7%
CC(C)CC(C(=O)NCc1ccc(F)cc1)N1Cc2ccccc2C1=O (stereo unspecified)
    / | -13.9% | / | / | / | 1.8%

# Next entries follow.
# Order of values – GPT2 inh | HEK293 viab | 3T3 cytotox | HEK cytotox | FLuc inh | SNCA expr inh
COc1ccc(-c2nc(C(=O)N3CCOCC3)n3ccccc23)cc1
    i | 0.5%[87.6 µM] | -21.4%[138 µM] | ? | -10.3%[172 µM] | 30.5%[activator][87.6 µM]
COc1ccc(-c2[nH]nc3ncc(C(=O)Nc4ccccc4)nc23)c(C)c1
    -2.3%[88.5 µM] | ? | 28.2µM* | ? | 1.2%[172 µM] | -22.6%[87.6 µM]
c1ccc(-c2[nH]nc3ncc(-c4cn[nH]c4)nc23)cc1
    i | -19.8%[87.6 µM] | ? | -50.5%[230 µM] | -0.5%[230 µM] | ?
Cc1cccc2nc(Cn3c(=O)n(-c4ccc(Cl)cc4)c(=O)c4c5c(sc43)CCC5)cc(=O)n12
    / | -8.7% | / | / | / | -17.2%
Cc1ccc(CNS(=O)(=O)c2ccc3c(c2)CC(C)N3C(=O)C2CCC2)cc1 (stereo unspecified)
    / | 17.6% | / | / | / | ?
COCC(C)Nc1ncnc2c1cnn2-c1cccc(Cl)c1 (stereo unspecified)
    / | 2.5% | / | / | / | -3.1%
COc1cccc(-c2cccc(C(=O)O)c2)c1
    -15.8%[88.5 µM] | 8.1%[87.6 µM] | -3.4%[174 µM] | 3.0%[230 µM] | / | 80.7%[activator][87.6 µM]
O=C(CCS(=O)(=O)c1nc(-c2ccc3c(c2)OCO3)cc(C(F)(F)F)n1)Nc1ccc(F)cc1F
    / | 18.9% | / | / | / | ?
CCOC(=O)c1sc2ccccc2c1S(=O)(=O)Nc1cccc(C(F)(F)F)c1
    / | -4.7% | / | / | / | -23.3%
CC(C)(C)c1ccc(C(=O)NC2(C(F)(F)F)C(=O)Nc3c2c(=O)[nH]c(=O)n3-c2ccccc2)cc1 (stereo unspecified)
    / | -15.0% | / | / | / | 15.2%
CC(C)Cn1c(=O)c2ccccc2n2c(CCC(=O)NC(C)c3ccccc3)nnc12 (stereo unspecified)
    / | -2.0% | / | / | / | 28.2%
Cc1ccc(-n2nc3n(c2=O)CCN([S+](=O)([O-])c2c(C)noc2C)C3)cc1
    -3.7% | 2.6% | 1.1% | ? | 0.0% | 6.0%
CCCCCNC(=O)c1cc2c(=O)n3ccccc3nc2n1C
    / | ? | / | / | / | 110.3%[activator]
Cc1ccc(C)c(S(=O)(=O)Nc2ccc3c(c2)CCCN3C(=O)c2cccs2)c1
    / | -25.9% | / | / | / | ?
O=C(NCCc1ccccc1)C(=O)NCC(c1cccnc1)N1CCN(c2ccc(F)cc2)CC1 (stereo unspecified)
    / | -3.0% | / | / | / | -17.5%
CN(C)C(=O)c1nc(C(C)(C)C)c2cnccn12
    -9.9%[88.5 µM] | 1.0%[87.6 µM] | -16.4%[138 µM] | i | / | 9.9%[87.6 µM]
COc1ccccc1CNc1nccn(-c2ccccc2)c1=O
    / | 13.3% | / | / | / | 99.7%[activator]
CC(=O)c1cccc(NC(=O)c2sc(-n3nc(C)c(CCC(C)C)c3C)nc2C)c1
    / | 5.5% | / | / | / | 0.1%
Cc1cc(C)cc(Nc2nc(C)cc(=O)n2CC(=O)Nc2cccc(Br)c2)c1
    3.5% | -21.7% | ? | ? | -0.2% | -11.3%
COc1ccc(NC(=O)N2CCCCC2c2nc(-c3cnccn3)n[nH]2)cc1 (stereo unspecified)
    i | 0.0% | -6.8% | -10.0% | -14.7% | 9.5%

# Additional entries
# Order of values – GPT2 inh | HEK293 viab | 3T3 cytotox | HEK cytotox | FLuc inh | SNCA expr inh
CN(Cc1ccccc1)Cc1ccccc1OCC(O)CN1CCCCC1 (stereo unspecified)
    -24.7% | -13.6% | -18.5% | ? | 2.5% | -19.1%
O=C(NCc1ccc2c(c1)OCO2)c1nc(-c2cccnc2)c2ccccn12
    i | 0.2% | ? | ? | -7.2% | 1.5%
CN(C)C(=O)c1nc(-c2cc(Cl)cc(Cl)c2)c2ccccn12
    3.4%[88.5 µM] | 5.7%[87.6 µM] | -18.5%[138 µM] | -30.0%[172 µM] | -13.7%[172 µM] | 29.7%[87.6 µM]
Cc1ccsc1-c1[nH]nc2ncc(-c3cn[nH]c3)nc12
    -16.2%[88.5 µM] | -22.6%[87.6 µM] | ? | ? | -20.7%[230 µM] | ?
Cc1cccc(C)c1NC(=O)c1sc(-n2nc(C)c(Cc3ccccc3)c2C)nc1C
    / | -8.1% | / | / | / | 29.4%
O=C(N[C@H]1C[C@@H](CO)N(CC2CCCCC2)C1)c1cccnc1
    -9.7% | -4.6% | -4.6% | -10.9% | -8.7% | -15.7%
Cc1ccc(OCc2nc(C3CCCCN3C(=O)c3ccn[nH]3)no2)cc1 (stereo unspecified)
    -3.6% | -4.7% | -29.8% | ? | -1.2% | 2.3%
CC(=O)c1cccc(NC(=O)Cn2c(Nc3cc(C)cc(C)c3)nc(C)cc2=O)c1
    -6.3% | ? | ? | ? | -1.0% | -3.6%
Cc1ccc(NC(=O)Nc2cn(CC(C)C)c(=O)c3ccccc23)cc1N(C)C
    / | -11.1% | / | / | / | -1.2%
COc1ccc(-n2ccnc(NCc3ccc(C)cc3)c2=O)cc1OC
    / | 3.9% | / | / | / | -10.8%
O=C(NCC(c1cccnc1)N1CCc2ccccc2C1)C(=O)Nc1ccccc1F (stereo unspecified)
    / | 5.8% | / | / | / | 61.2%
FC(F)(F)c1cccc(-c2cc(-c3ccncc3)c3cncn3c2)c1
    ? | 3.7%[87.6 µM] | 35.5µM* | ? | -12.4%[172 µM] | ?
CCCS(=O)(=O)N1C[C@@H](COC)[C@H](c2nc(C)no2)C1
    -11.9% | 5.8% | i | i | -0.9% | 10.8%
CCCOc1ccc(/C=C/C(=O)Nc2sc3c(c2C(=O)OCC)CCC(C)C3)cc1OC (stereo unspecified)
    / | -4.2% | / | / | / | 2.7%
Cc1cc(NC(=O)CN(C)S(=O)(=O)c2ccc3c(c2)CCC(=O)N3)ccc1Br
    / | -1.1% | / | / | / | 2.0%
Cc1nc2ccn(Cc3cccnc3)c(=O)c2cc1C(=O)Nc1ccc(OC(F)(F)F)cc1
    / | -11.5% | / | / | / | -4.4%
Cc1ccc(CN2C(=O)N(c3ccc(F)cc3)C(=O)C2CC(=O)Nc2ccc(Cl)cc2)cc1 (stereo unspecified)
    / | 5.8% | / | / | / | -1.4%
O=C(NCc1ccccc1)C(=O)Nc1c2c(nn1-c1ccccc1)CSC2
    / | 2.9% | / | / | / | -19.4%
O=C(c1ccn[nH]1)N1CCC(c2noc(COc3ccc(F)cc3)n2)C1 (stereo unspecified)
    3.4% | -20.4% | -25.8% | ? | 1.3% | 5.2%
COc1ccc(C(=O)N2CCC(n3c(=O)[nH]c4ccccc43)CC2)cc1
    -4.4% | -19.7% | -12.5% | -22.7% | / | -27.2%

# (further entries)
# Order of values – GPT2 inh | HEK293 viab | 3T3 cytotox | HEK cytotox | FLuc inh | SNCA expr inh
CCc1ccc(NC(=O)C(=O)NCCc2csc(-c3cccc(F)c3)n2)cc1
    / | 11.4% | / | / | / | 8.3%
Cc1ccc(C(=O)NCCc2csc(-c3cccc(F)c3)n2)cc1C
    / | -10.0% | / | / | / | -9.9%
CCc1cc(=O)n(CC(=O)Nc2cccc(C(C)=O)c2)c(-c2ccccc2)n1
    i | -10.2% | 35.5µM* | 25.1µM* | -3.3% | -6.1%
N#Cc1ccc(CN2C[C@@H](NC(=O)c3cccnc3)C[C@H]2CO)cc1
    i | 2.0% | 0.7% | -11.7% | 4.2% | -16.6%
CC(C)Cn1c(=O)c2ccccc2n2c(CCC(=O)N3CCN(c4ccccc4)CC3)nnc12
    / | ? | / | / | / | -2.1%
CCCNC(=O)CCSc1nc(-c2ccc3c(c2)OCO3)cc(C(F)(F)F)n1
    / | -2.8% | / | / | / | 0.9%
COc1ccccc1N1CCN(CC(O)COc2cc(OC)c(OC)c(OC)c2)CC1 (stereo unspecified)
    2.6% | -36.4%[23.9 µM] | / | / | / | -15.8%[25.6 µM]
Cc1cccc(-c2noc(-c3cccnc3NCc3ccccc3Cl)n2)c1
    / | 9.6% | / | / | / | 75.7%[activator]
COc1cc(OC)cc(C(=O)Nc2ccc3c(c2)CCCN3C(=O)c2cccs2)c1
    / | 2.0% | / | / | / | 23.7%
CC(C)NC(=O)C1=CC(c2ccc3c(c2)OCO3)=NS(=O)(=O)N1C
    / | -11.8% | / | / | / | 14.5%

# The list is partial, so the mix of outcomes need not match the whole.
